# Rango complex inh = qHTS Assay for Inhibitors of Rango (Ran-regulated importin-beta cargo) - Importin beta complex formation; Potency, µM (titrated, usually from 92.2 µM), inactives show top-dose inhibition of complex formation; Rango CFP/YFP FRET sensor + importin beta, 45 min; Importin subunit beta-1 (Homo sapiens), Q14974; AID 540263, 2011; hit rate 0.031% among 340,000; active = rising FRET ratio curve, often small or poorly fitted; inconclusive = mostly compound fluorescence or quenching in the first reads; inactive = flat curves in all reads;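 also: potency is read from the fitted curve at half-maximal effect; 0% = DMSO wells and 100% = buffer wells lacking importin beta; nearly all actives have a fitted effect of over 15% in size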
# Target sequence (Q14974 whole entry, looked up): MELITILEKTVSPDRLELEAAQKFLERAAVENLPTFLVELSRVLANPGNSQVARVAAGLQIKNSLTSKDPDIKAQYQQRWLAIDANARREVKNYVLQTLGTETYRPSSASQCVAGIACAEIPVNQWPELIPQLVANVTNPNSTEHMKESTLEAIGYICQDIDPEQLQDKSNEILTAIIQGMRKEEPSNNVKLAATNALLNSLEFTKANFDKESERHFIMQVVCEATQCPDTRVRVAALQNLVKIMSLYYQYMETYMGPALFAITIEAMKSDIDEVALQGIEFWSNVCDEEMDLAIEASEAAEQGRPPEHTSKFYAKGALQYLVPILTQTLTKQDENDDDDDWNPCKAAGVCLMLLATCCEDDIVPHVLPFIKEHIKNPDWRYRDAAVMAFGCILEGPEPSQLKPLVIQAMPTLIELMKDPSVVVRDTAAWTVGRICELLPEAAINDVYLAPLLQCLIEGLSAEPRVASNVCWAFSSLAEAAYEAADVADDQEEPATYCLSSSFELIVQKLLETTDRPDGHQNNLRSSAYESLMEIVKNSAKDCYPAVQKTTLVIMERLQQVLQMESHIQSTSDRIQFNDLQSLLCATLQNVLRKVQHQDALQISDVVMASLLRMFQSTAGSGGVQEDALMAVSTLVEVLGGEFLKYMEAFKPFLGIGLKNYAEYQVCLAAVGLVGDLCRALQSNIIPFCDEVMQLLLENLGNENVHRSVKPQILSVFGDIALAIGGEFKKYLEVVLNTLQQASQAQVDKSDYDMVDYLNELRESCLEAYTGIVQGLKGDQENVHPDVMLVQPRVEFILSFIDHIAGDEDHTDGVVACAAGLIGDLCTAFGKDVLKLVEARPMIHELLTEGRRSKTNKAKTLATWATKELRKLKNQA
#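 FRET biosensor (snurportin 1 IBB flanked by EYFP and cerulean), 50 nM, with compound 5 min, then 0.125 microM importin beta in PBS, 1 mM DTT, 0.02% Tween-20, 0.1% BSA. CFP/YFP ratio read after 45 min at room temperature; pre-read flags interference.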
# miR-21 FLuc = qHTS Assay for Modulators of miRNAs and/orActivators of miR-21. HeLa miR-21 FLuc reporter, luciferase, 48 h. Potency, µM (top dose mostly 38.3 µM), without a hit: top-dose reporter change, positive = more light. 340,000 tested, under 10 active. AID 2288, 2010; active = well fitted rising curve with a large enough effect; inconclusive = small, poorly fitted or top-dose-only effect; inactive = no such curve, though single readings can be large or run the other way;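 also: % of control where 0% means no effect; miR-21 action dims this reporter so a rising signal means less miR-21 action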
#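 HeLa miR-21-FLuc reporter line, endogenous miR-21; 2000 cells/well in DMEM/10% FBS; compound titration up to ~40uM final, 48 h, 37 degree Celsius; luciferase detection reagent, 15 min lysis, CCD luminescence.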
# Rango release inh = qHTS Assay for Inhibitors of RanGTP induced Rango (Ran-regulated importin-beta cargo) - Importin beta complex dissociation | Snurportin-1 (Homo sapiens) + GTP-binding nuclear protein Ran (Homo sapiens) + Importin … | Biochemical FRET Rango-importin beta, RanGTP-induced dissociation | Potency, µM (titrated, usually from 46.1 µM), for inactives: top-dose activity change, negative = inhibition | hit rate 0.071% among 340,000; active means falling FRET ratio curve, often poorly fitted, with flat reads before Ran was added; inconclusive means other falling curves, or compound fluorescence or quenching; inactive means flat or rising ratio curve;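 also: potency is read from the fitted curve at half-maximal effect; % of control where 0% means no effect; nearly all actives have a fitted effect of over 45% in size; -100% = wells without RanGTP and RCC1; the record marks most hits as doubtful in a second field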
#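 Compounds sat 5 min at room temperature with 0.1 uM Rango biosensor plus 0.25 uM importin beta, then FRET pre-read. RanGTP-RCC1 (0.6 uM Ran, 2mM GTP, 0.2 uM RCC1) added for 45 min, and the CFP/YFP post-read measured blocked complex dissociation.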
# GLA inh pH 4.5 = qHTS Assay for Inhibitors of Human alpha-Galactosidase at pH 4.5; 230,000 tested, under 10 active; AID 1467, 2008; activity change, negative = inhibition, % at 105 µM; purified enzyme, 4-MU-alpha-Gal fluorescence, pH 4.5; Alpha-galactosidase A (Homo sapiens), P06280; inconclusive = small, poorly fitted or top-dose-only inhibition, or a rising curve; inactive = flat fitted curve, though single readings scatter; no compound was filed as active;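 also: 0% = full activity with enzyme and -100% = basal without enzyme; dose as in the result columns while the protocol names 77 µM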
# The depositor's hits bear a star; u = inconclusive; x = no result given; & = joins results of further samples.
Rango complex inh	miR-21 FLuc	Rango release inh	GLA inh pH 4.5	SMILES
0.4%	x	-6.7%	x	Cc1ccc(NC(=O)COC(=O)CCc2c[nH]c3ccccc23)c(C)c1
0.9%	-10.3%	0.6%	-6.7	Cc1c(C(=O)N2CCN(CCc3ccccc3)CC2)oc2ccccc12
-2.0%	0.6%	20.4%	0.4	COc1ccc(N(CC(=O)Nc2ccc(C(N)=O)cc2)S(=O)(=O)c2ccc(C)c([N+](=O)[O-])c2)cc1
4.9%	0.4%	-15.4%	-2.6	COC(=O)c1ccc(/C=N/NC(=O)CC(=O)NCc2cccnc2)cc1
-1.8%	0.4%	2.6%	x	CC(=O)Nc1cccc(NC(=O)COC(=O)CO/N=C(\C)c2ccc3c(c2)OCO3)c1
-1.4%	-4.7%	-10.8%	3.5	Cc1ccc(C)n1-n1cnc2sc3c(c2c1=O)CCC3
x	1.8%	x	14.0	Cc1nn2c(N)csc2nc1=O
1.8%	-4.0%	2.0%	1.4	COC(=O)c1cc(C(=O)OC)n(Cc2ccc(F)cc2)n1
-0.5%	u	u	x	OC(CN1CCCCC1)Cn1c2ccc(Cl)cc2c2cc(Cl)ccc21 (stereo unspecified)
0.3%	-10.7%	-16.4%	x	CCC(C(=O)N/N=C(\C)c1cccnc1)c1ccccc1 (stereo unspecified)
-3.0%	-8.0%	-5.8%	-0.6	COc1ccc(NC(C)=O)cc1NC(C)c1nc2sc(C)c(C)c2c(=O)[nH]1 (stereo unspecified)
4.8%	-1.6%	0.2%	-1.3	CCOC(=O)C1(C/C(C)=N/NC(N)=O)CC(C)(C)OC1=O (stereo unspecified)
-0.2%	-10.4%	14.4%	x	Cc1nn(C)c(C(=O)NC(=S)Nc2ccc([N+](=O)[O-])cc2)c1Cl
1.9%	7.0%	4.8%	-3.6	CCCCNC(=O)c1sc2nc(C)cc(COC)c2c1-n1cccc1
0.7%	x	2.1%	x	Cc1ccc(OCC(=O)NNC(=O)Cc2ccc(S(=O)(=O)N3CCOCC3)s2)cc1
1.1%	-8.0%	3.2%	-2.7	CC(C)CNC(=O)CSc1nnc(-c2ccccn2)n1Cc1ccccc1
-2.4%	-29.9%	-3.5%	-1.9	Nc1ccc(SCCN2C(=O)c3ccccc3C2=O)cc1
6.0%	x	-14.8%	x	O=C(c1cc(-c2ccc(F)cc2)nc2ccccc12)N1CCC1
-3.1%	-3.1%	-1.1%	x	CCOC(=O)CC1C(=O)NCCN1C(=S)NC(=O)c1ccccc1OC (stereo unspecified)
-1.6%	x	u	x	CCOC(=O)[C@@H]1[C@H]2COc3ccccc3[C@@H]2N2C(=O)N(c3cccc(F)c3)C(=O)[C@]12C
-1.4%	1.0%	-3.3%	1.2&-2.6	COC(=O)[C@@H]1C[C@@H]2CC[C@@H](O)C[C@@H]2N1Cc1ccccc1OS(=O)(=O)c1ccc(C)cc1
0.5%	-8.6%	1.3%	6.4	CCC(=O)Oc1cccc(C(=O)Nc2ccc(-c3nnc(-c4ccco4)o3)cc2)c1
-0.1%	-10.9%	1.4%	-12.8	CCCOc1cccc(C2/C(=C(/O)c3ccc(F)cc3)C(=O)C(=O)N2CCN(C)C)c1 (stereo unspecified)
-0.6%	-14.8%	7.4%	2.5	CCS(=O)(=O)CCSc1nc2ccccc2s1
0.8%	-0.3%	-12.0%	x	FC(F)(F)c1ccc(Cl)c(-n2c(-c3ccco3)n[nH]c2=S)c1
-0.4%	-1.4%	0.5%	2.8	c1cc(-c2nnc3n2CCCCC3)ccn1
-0.4%	x	-6.9%	x	O=C(NCc1ccccc1)c1onc(CSc2ccncc2)c1C(=O)NCc1ccccc1
4.7%	9.9%	-3.8%	2.2	O=C(CC1C(=O)NCCN1Cc1ccc(-c2ccccc2)cc1)NCc1ccccc1 (stereo unspecified)
-0.4%	-16.1%	14.2%	-10.9	CC(C)(C)c1nnc(N/N=C/c2ccc(Br)cc2)n(N)c1=O
-0.8%	-4.6%	0.3%	-5.1	CSc1ccccc1Nc1ncnc(N)n1
-2.8%	3.5%	-10.0%	-17.4	COc1cccc(NC(=O)Nc2cccn(Cc3ccccc3)c2=O)c1
2.1%	x	-0.7%	x	COc1ccccc1NC(=O)c1cnc(SCC(=O)NCC2CCCO2)n(C)c1=O (stereo unspecified)
0.9%	-0.1%	-18.6%	-0.2	Cc1ccc2cc(/C=N/NC(=O)c3ccccc3O)c(Cl)nc2c1
-2.4%	-29.9%	-7.1%	9.9	CN(C)C(=O)c1cc(C(=O)c2ccccc2Cl)c[nH]1
0.4%	x	-6.9%	x	CC(C)c1ccc(NC(=O)COC(=O)c2ccc(CN3CCCC3=O)cc2)cc1
-2.6%	x	1.2%	x	CCN(CC)c1ccc(NC(=O)CSc2n[nH]c(-c3ccco3)n2)cc1

# Another view of part of the listing above:
# The line under a structure holds: Rango complex inh | miR-21 FLuc | Rango release inh | GLA inh pH 4.5
CC(C)c1ccc(NC(=O)COC(=O)c2ccc(CN3CCCC3=O)cc2)cc1
  0.4% | x | -6.9% | x
CCN(CC)c1ccc(NC(=O)CSc2n[nH]c(-c3ccco3)n2)cc1
  -2.6% | x | 1.2% | x

# Next section
Rango complex inh	miR-21 FLuc	Rango release inh	GLA inh pH 4.5	SMILES
-0.4%	-35.4%	1.6%	-4.2	CCCC(=O)Nc1nc(-c2ccccc2)ns1
0.3%	-6.1%&3.3%	-10.2%	-4.1	COc1ccc(NC(=O)C2CCCN(S(=O)(=O)c3c(C)[nH]c(=O)[nH]c3=O)C2)cc1Cl (stereo unspecified)
1.4%	-1.1%	-10.7%	1.1	COc1cc(CN2CCNC(=O)C2CC(=O)NCc2csc(C(C)C)n2)cc(OC)c1 (stereo unspecified)
u	-4.5%	3.5%	4.8	Cc1ccc(NC(=O)C2CCCN2C(=O)NC2CCCCC2)c(C)c1 (stereo unspecified)
-3.9%	-3.1%	2.4%	-0.3	CC(C)CC(=O)Nc1ccc(C(=O)NN2C(=O)c3ccccc3C2=O)cc1
2.9%	-17.8%	-13.1%	2.8	CCCC/C=C1\CCc2c([nH]c3ccccc23)C1=O
-0.2%	2.6%	-17.0%	1.0	COC(=O)c1c(NC(=O)CSc2nnc(C)c(=O)[nH]2)sc(C)c1C
-3.2%	-3.0%	23.5%	5.6	Cc1[nH]c2ccccc2c1C(=O)C(=O)N1CCCc2ccccc21
-0.2%	2.5%	-1.3%	0.2	COCCn1c(-c2cccc(Br)c2)nc2c(c(=O)c3ccccc3n2C)c1=O
-6.9%	-18.0%	u	10.3	Brc1ccc(/C=C/C=N/Nc2nc3ccccc3s2)cc1
3.3%	0.9%	-2.6%	7.4	CC(C)CC(=O)Nc1ccccc1-c1nnn(CC(=O)N2CCOCC2)n1
-2.6%	-0.5%	-4.6%	-3.1	Cc1noc(C)c1COC(=O)c1ccccc1Sc1ccccc1C#N
-2.2%	-18.8%	-3.8%	4.7	NC(=O)c1c(NC(NC(=O)c2ccco2)(C(F)(F)F)C(F)(F)F)sc2c1CCCC2
-2.5%	-61.5%	4.3%	2.8	COc1ccc(Nc2nc(N)nc(CSC(=S)N3CCCCC3)n2)cc1
-5.1%	-4.7%	7.5%	11.8	Cc1ccc(-c2nnc(Oc3ccc(NC(=O)c4ccccc4)cc3)c3ccccc23)cc1
-2.0%	-3.9%	-6.9%	-10.0	NC(=O)CN1CCN(C(=O)Nc2ccccc2)CC1
1.2%	x	-5.2%	x	O=C1c2ccccc2S(=O)(=O)c2cc(N3CCN(c4ccccc4)CC3)ccc21
u	0.3%	-6.2%	3.1	O=C1CCCC(NCCCCCCNC2=C([N+](=O)[O-])C(=O)CCC2)=C1[N+](=O)[O-]
0.3%	-4.7%	0.4%	-2.1	Cc1ccc(NC(=O)Cn2c(O)c(N=NC(=O)c3ccncc3)c3ccccc32)cc1
-1.0%	14.7%	6.6%	x	CCOC(=O)/C=C1\CN(Cc2cc(OC)c(OC)c(OC)c2)S(=O)(=O)c2ccccc21
4.3%	x	8.5%	-6.5	Cc1c(O)c(=O)n(-c2ccccc2)n1C
u	-11.5%	u	3.8	Cc1ccccc1-n1c(=O)cc(N2CCc3ccccc3C2)[nH]c1=O
-2.1%	-9.5%	-5.3%	-21.5	COc1ccc(NC(=O)NC2CC3CCCC(C2)N3Cc2ccccc2)cc1 (stereo unspecified)
3.9%	x	0.8%	x	CCOC(=O)c1nn(-c2ccc(C)cc2)c(=O)cc1OCC(=O)N1CCN(c2ccccc2)CC1
u	-29.7%	u	-16.0	CC(=O)c1ccc2c(c1)N(C)c1ccccc1S2
0.1%	x	-6.3%	x	CC(C)Cn1c(N)c(C(=O)COC(=O)c2ccccc2C(=O)c2ccccc2)c(=O)n(C)c1=O
1.3%	-40.3%	-13.2%	0.4	C/C(=N\NC(=O)c1cccs1)c1cccnc1
2.2%	-14.7%	18.9%	-3.4	Clc1ccccc1Cc1noc(CN2CCN(c3cnccn3)CC2)n1
5.8%	x	-8.8%	x	CC1Nc2ncnc(N3CCc4ccccc4C3)c2N(Cc2ccc(Br)cc2)C1=O (stereo unspecified)
-0.9%	-50.6%	5.4%	1.4	O=c1cc(N2CCOCC2)cnn1-c1ccccc1
2.0%	1.1%	-10.3%	-28.8	COC(=O)c1c(C)[nH]c(C(=O)OCC(=O)NC(C)(C)C)c1C
-0.3%	-21.6%	11.7%	2.6	COc1cc(C(=O)Nc2cc(C(F)(F)F)ccc2N2CCOCC2)ccc1O
-2.0%	x	8.2%	x	O=S(=O)(Cc1ccc(Cl)cc1Cl)c1ccc(Cl)cc1
-0.6%	0.0%	19.1%	x	COc1ccc(S(=O)(=O)N2CCC(C(=O)NCc3cccnc3)CC2)cc1C
4.2%	x	-1.6%	x	COc1ccc(C(=O)Nc2cccc(C)n2)cc1S(=O)(=O)N1CCCc2ccccc21
0.3%	-25.2%	-0.4%	3.4	Cn1c(CO)cnc1SCc1ccc(F)cc1
4.5%	2.2%	1.8%	x	O=C(Nc1cccnc1)c1ccc(Cl)c(S(=O)(=O)N2CCCC2)c1
u	-4.0%	-20.4%	1.7	CN(C)S(=O)(=O)c1ccc(NC(=O)c2cccnc2)cc1
-0.2%	-31.3%	-10.3%	5.5	COc1ccc2nc(NC(C)=O)sc2c1
-0.5%	-0.2%	-2.6%	x	CCN1C(=O)[C@H]2[C@@H](c3ccc(C)cc3)N3C(=O)N(c4ccc(C)cc4)C(=O)[C@@]3(Cc3ccccc3)[C@H]2C1=O
-4.7%	-15.0%	10.0%	-7.6	Cc1ccccc1N=C1Nc2ccccc2CS1
-1.8%	2.1%	0.6%	x	O=C(c1cc(N2CCOCC2)c(F)cc1[N+](=O)[O-])N1CCOCC1
-3.4%	-37.7%	-9.4%	-19.5	O/N=C/c1ccccc1OCc1ccc(Cl)cc1
-1.8%	-1.9%	-20.7%	2.9	CCOc1cc(/C=C2/SC(=O)N(CC(=O)N3CCc4ccccc4C3)C2=O)ccc1OCC(=O)O
-1.2%	x	-2.2%	x	CC(C)(C)c1ccc(C(=O)NCC(=O)NNC(=O)c2ccccc2O)cc1
0.4%	x	1.7%	x	CC1CCN(C(=O)c2nc[nH]c2C(=O)OCCNC(=O)OC(C)(C)C)CC1
-2.1%	-6.3%	-18.9%	-12.7	CN(C(=O)CSc1nnc(-c2c[nH]c3ccccc23)o1)C1CCS(=O)(=O)C1 (stereo unspecified)
-3.1%	-3.1%	9.4%	0.8	O=C(Cn1nc(-c2ccccc2F)ccc1=O)Nc1ccc(S(=O)(=O)N2CCCCCC2)cc1
-1.2%	-0.9%	6.9%	-4.8	CC(C)Oc1cccc(C(=O)O)c1
0.5%	-10.1%	0.4%	5.8	CS(=O)(=O)N1CCN(c2nc(-c3ccc(F)cc3)cs2)CC1

# Screens from PubChem.

# Not all compounds are listed (hit frequency here may not be typical).
